HIV TAR-Tat: HIV-1 TAR-Tat binding disruption; HIV-1 TAR RNA, Tat peptide displacement FRET; stronger effect = higher value; z-score (concentration not given with the values); 100,000 compounds, 0.6% hits; AID 1259389;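 further: score is relative to mean and SD of negative controls; some compounds called inactive have numbers as strong as hits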
CDC25B CDK2 inh: human CDC25B-CDK2/CyclinA binding inhibition; z-score (test concentration not listed); P30305+P24941; HTRF CDC25B-CDK2/CyclinA binding, anti-His/anti-Flag; stronger effect = higher value; 94,000 compounds, 0.72% hits;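 further: score is relative to mean and SD of negative controls; strong numbers were not always called active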
* hit, by the source's call; x = no result given; & = joins results of further samples.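 How the source made its calls: active means z-score from 3 up in half or more of its runs; inactive means the rest.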

Results follow in this order: HIV TAR-Tat, CDC25B CDK2 inh
1: Cc1ccccc1OCC(O)CO (centres undefined)
→ 0.86, x
2: COc1ccc(C(=O)c2ccccc2)c(O)c1
→ 0.35, x
3: CN(C)CC/C=C1/c2ccccc2COc2ccc(CC(=O)O)cc21
→ 0.23, x
4: CCCOc1ccc2nc(NC(=O)OC)[nH]c2c1
→ 2.21, x
5: Cc1scc2c1N(C(=O)CN1CCN(C)CC1)c1ccccc1NC2=O
→ x, -0.45
6: N=c1nc(N2CCCCC2)cc(N)n1O
→ 4.66, -2.81
7: CCN(CC)CC1CCCCN1CC(=O)N1c2ccccc2C(=O)Nc2cccnc21 (centres undefined)
→ 3.56, x
8: O=C(NC1CCN(CCc2c[nH]c3ccccc23)CC1)c1ccccc1
→ x, -1.64
9: CN[C@@H]1[C@H](O)[C@H](NC)[C@H]2O[C@@]3(O)C(=O)C[C@@H](C)O[C@H]3O[C@@H]2[C@H]1O
→ 1.71&1.67, x
10: COc1ccc(-c2oc3c(CC=C(C)C)c(O[C@@H]4O[C@H](CO)[C@@H](O)[C@H](O)[C@H]4O)cc(O)c3c(=O)c2O[C@@H]2O[C@@H](C)[C@H](O)[C@@H](O)[C@H]2O)cc1
→ -0.04&-0.47, x
11: CC(Cc1cccc(C(F)(F)F)c1)NCCOC(=O)c1ccccc1 (centres undefined)
→ 0.32, x
12: Cc1cccc(Cc2c(C)nc3c(-c4ccccc4)c(C)[nH]n3c2=O)c1
→ 1.14, -3.15
13: CNS(=O)(=O)CCc1ccc2[nH]cc(C3CCN(C)CC3)c2c1
→ x, -2.62
14: CCN(CCCCOC(=O)c1ccc(OC)c(OC)c1)C(C)Cc1ccc(OC)cc1 (centres undefined)
→ -0.54, x
15: COc1ccc(-c2cc(C(F)F)nn2-c2ccc(S(N)(=O)=O)cc2)cc1F
→ 0.33, x
16: CC(C)NNC(=O)c1ccncc1
→ 1.52, 1.21
17: Nc1c2ccccc2nc2ccccc12
→ -0.22, x
18: Cc1nc(N2CCN(c3ccccn3)CC2)nc2c1C(=O)CC(c1ccccc1)C2 (centres undefined)
→ 1.79, -1.12
19: C[C@H]1[C@H](C)CC[C@]2(C(=O)O)CC[C@]3(C)C(=CC[C@@H]4[C@@]5(C)C[C@@H](O)[C@H](O)[C@@](C)(CO)[C@@H]5CC[C@]43C)[C@H]12
→ 2.84, x
20: CN(C)CCCSc1ccccc1NC(=O)/C=C/c1ccccc1
→ 1.01, x
21: COc1cc(N)c(Cl)cc1C(=O)N[C@@H]1CCN(CCCOc2ccc(F)cc2)C[C@@H]1OC
→ 2.22, x
22: Nc1ncnc2c1c(-c1ccc(Oc3ccccc3)cc1)cn2C1CCCC1
→ x, -0.65
23: Cc1cc(=O)oc2cc(O)ccc12
→ 2.91, 1.11
24: COc1cc2c(c(OC)c1OC)-c1c(cc(OC)c(OC)c1OC)CC(C)C(C)C2 (centres undefined)
→ 2.73, x
25: Cc1cc2n(n1)CCC(=O)N2CCCC(=O)N1CCOCC1
→ 0.94, x
26: COC(=O)C1=C(C)NC2=C(C(=O)c3ccccc32)C1c1cccs1 (centres undefined)
→ -1.2, 0.77
27: CCCCC(=O)O[C@]1(C(=O)CO)[C@@H](C)CC2C3CCC4=CC(=O)C=C[C@]4(C)[C@@]3(F)C(O)C[C@@]21C (some centres undefined)
→ 0.57, x
28: CC(C)OCc1cc(CN2CCN(c3ccccc3)CC2)c(O)c2ncccc12
→ 1.01, -0.95
29: COC(=O)N/N=C/c1c[n+]([O-])c2ccccc2[n+]1[O-]
→ -0.32, x
30: Cn1ccc2cc3c(cc21)CCN3C(=O)Nc1cccnc1
→ x, 3.43

Reprinted from the part before: three entries, followed by the next part.
Results follow in this order: HIV TAR-Tat, CDC25B CDK2 inh
28: CC(C)OCc1cc(CN2CCN(c3ccccc3)CC2)c(O)c2ncccc12
→ 1.01, -0.95
29: COC(=O)N/N=C/c1c[n+]([O-])c2ccccc2[n+]1[O-]
→ -0.32, x
30: Cn1ccc2cc3c(cc21)CCN3C(=O)Nc1cccnc1
→ x, 3.43
31: O=C(NCCCN1CCCC1)c1c2c(nc3ccccc13)C(=O)N(C1CCCCC1)C2
→ 0.48, x
32: CC[C@]12CCCN3CCc4c(n(c5ccccc45)[C@](O)(C(=O)OC)C1)[C@@H]32
→ 1.59, x
33: CCn1cc(C(=O)O)c(=O)c2cc(F)c(N3CCNC(C)C3)c(F)c21 (centres undefined)
→ 1.2, -2.55
34: COc1ccccc1CN[C@@H]1CCCN[C@@H]1c1ccccc1
→ x, 0.02
35: CC(C)(C)NCC(O)COc1cccc2c1C[C@H](O)[C@H](O)C2 (some centres undefined)
→ 1.08, x
36: O=C1c2c(O)ccc(O)c2C(=O)c2c(NCCNCCO)ccc(NCCNCCO)c21
→ 17.4*, -0.47
37: CCCCN(CCCC)CCCOC(=O)c1ccc(N)cc1
→ 0.27, x
38: COc1cc(Br)c(CC2C(=O)Nc3ccccc32)cc1OC (centres undefined)
→ 1.18, -1.26
39: CCC1(O)CC2CN(CCc3c([nH]c4ccccc34)[C@@](C(=O)OC)(c3cc4c(cc3OC)N(C)C3[C@]45CCN4CC=C[C@@](CC)([C@@H](OC(C)=O)[C@]3(O)C(=O)OC)[C@H]45)C2)C1 (some centres undefined)
→ x, -1.62
40: CC(=O)N[C@@H](Cc1ccccc1)C(=O)O
→ x, 0.3
41: CCn1c(C(=O)N2CCCC(C(=O)N3CCc4ccccc4C3)C2)cc2sccc21 (centres undefined)
→ -0.37, -0.41

Filtered by structure, those above containing four or more nitrogen atoms
Results follow in this order: HIV TAR-Tat, CDC25B CDK2 inh
5: Cc1scc2c1N(C(=O)CN1CCN(C)CC1)c1ccccc1NC2=O
→ x, -0.45
6: N=c1nc(N2CCCCC2)cc(N)n1O
→ 4.66, -2.81
7: CCN(CC)CC1CCCCN1CC(=O)N1c2ccccc2C(=O)Nc2cccnc21 (centres undefined)
→ 3.56, x
18: Cc1nc(N2CCN(c3ccccn3)CC2)nc2c1C(=O)CC(c1ccccc1)C2 (centres undefined)
→ 1.79, -1.12
22: Nc1ncnc2c1c(-c1ccc(Oc3ccccc3)cc1)cn2C1CCCC1
→ x, -0.65
25: Cc1cc2n(n1)CCC(=O)N2CCCC(=O)N1CCOCC1
→ 0.94, x
29: COC(=O)N/N=C/c1c[n+]([O-])c2ccccc2[n+]1[O-]
→ -0.32, x
30: Cn1ccc2cc3c(cc21)CCN3C(=O)Nc1cccnc1
→ x, 3.43
31: O=C(NCCCN1CCCC1)c1c2c(nc3ccccc13)C(=O)N(C1CCCCC1)C2
→ 0.48, x
36: O=C1c2c(O)ccc(O)c2C(=O)c2c(NCCNCCO)ccc(NCCNCCO)c21
→ 17.4*, -0.47
39: CCC1(O)CC2CN(CCc3c([nH]c4ccccc34)[C@@](C(=O)OC)(c3cc4c(cc3OC)N(C)C3[C@]45CCN4CC=C[C@@](CC)([C@@H](OC(C)=O)[C@]3(O)C(=O)OC)[C@H]45)C2)C1 (some centres undefined)
→ x, -1.62

Screens: PubChem, Center for Chemical Genomics, University of Michigan

The list is partial (hit frequency here may not be typical).
